# From PubChem BioAssay
# Mtb betalactam – beta-lactam sensitization of Mtb H37Rv; AID 434955; M. tuberculosis H37Rv growth with meropenem, percent inhibition; hits of this screen are not shown here; 330,000 tested, 0.27% active; inhibition, % at 25 µM;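 active means about 74% or more and at least 40 points above the plate without the antibiotic, then above 30% in a dose series; inconclusive means first-round hits that could not be retested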;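 further: growth measured after seven days incubation then overnight dye step; 0% = bacteria only wells and 100% = bacteria with antibiotic; twin plates without the antibiotic show which effects depend on it; some results filed as inactive read as strong as hits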
# YopH inh – inhibitors of Yersinia enterocolitica YopH tyrosine phosphatase; fluorescence Ex485/Em525; inhibition, %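 (about 10 µM by stock and volumes)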; 140,000 tested, 0.16% active; AID 898;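 active means inhibition of 50% or more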;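 further: controls were vehicle for no effect and minimum signal wells for full effect; inactives centre near -20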
# Mtb H37Rv – M. tuberculosis H37Rv growth inhibitors, H37Rv strain (AID 1626). 220,000 tested, 0.95% active. M. tuberculosis H37Rv growth inhibition; higher % means a stronger effect. inhibition, % at 10 µM, or IC50 in µM where a hit was titrated;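 active means confirmed in a dose series; inconclusive means inhibition above 80% but not taken into the dose series; inactive means below 80% or under 30% at every dose of the series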;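 further: bacteria incubated seven days before Alamar blue readout; 0% = bacteria only wells and 100% = bacteria with antibiotic wells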
# RecA intein inh – inhibitors of M. tuberculosis RecA intein splicing. P9WHJ3. cell-free RecA intein splicing, fluorescence. inhibition, %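 (about 9 µM by stock and volumes)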. 290,000 tested, 0.75% active; in the data active means inhibition above about 30%; inconclusive means no clear call, values can overlap the other calls;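 further: 0% = vehicle wells and 100% = reference inhibitor control wells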
# Target sequence (P9WHJ3 whole entry, looked up): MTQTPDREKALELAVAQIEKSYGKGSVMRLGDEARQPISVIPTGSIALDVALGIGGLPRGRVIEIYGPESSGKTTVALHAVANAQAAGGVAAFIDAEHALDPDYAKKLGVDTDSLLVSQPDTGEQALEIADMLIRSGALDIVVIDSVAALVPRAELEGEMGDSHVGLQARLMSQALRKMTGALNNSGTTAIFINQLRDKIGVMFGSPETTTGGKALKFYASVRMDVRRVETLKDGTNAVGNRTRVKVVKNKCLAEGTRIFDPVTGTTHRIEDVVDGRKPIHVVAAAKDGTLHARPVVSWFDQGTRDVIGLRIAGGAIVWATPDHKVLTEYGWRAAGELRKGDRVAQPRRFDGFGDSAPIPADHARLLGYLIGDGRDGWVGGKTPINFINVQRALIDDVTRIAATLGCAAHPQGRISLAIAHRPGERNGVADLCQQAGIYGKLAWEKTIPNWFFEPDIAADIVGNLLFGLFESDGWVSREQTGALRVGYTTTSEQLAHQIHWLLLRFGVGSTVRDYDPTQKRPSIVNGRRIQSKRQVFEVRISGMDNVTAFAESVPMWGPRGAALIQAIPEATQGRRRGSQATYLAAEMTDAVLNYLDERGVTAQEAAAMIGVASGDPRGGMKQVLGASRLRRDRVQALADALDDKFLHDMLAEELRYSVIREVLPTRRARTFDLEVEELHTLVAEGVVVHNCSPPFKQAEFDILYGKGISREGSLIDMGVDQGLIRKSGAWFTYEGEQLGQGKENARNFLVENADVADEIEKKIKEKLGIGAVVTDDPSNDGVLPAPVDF
# Arbovirus inh – arbovirus infection inhibition | inhibition, % at 10 µM | arbovirus infection cell-based antiviral screen | 200,000 tested, 0.37% active;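 active means inhibition from about 30%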;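 further: bluetongue infection of BSR cells; cell survival read as ATP light after 72 h; 0% = infected wells without compound and 100% = uninfected wells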
# Arbovirus inh repeat – further read-out of Arbovirus inh, marked with its call; inhibition, %; measured here: 10K subset replicate screen; many hits read low in the repeat;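 first of two repeat runs on a subset; 0% = infected and 100% = uninfected wells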
# Starred values were filed as active, the others as inactive; ? = inconclusive; · = not tested or not shown. These rows are one share of the data, so the mix of outcomes need not match the whole.
SMILES,Mtb betalactam,YopH inh,Mtb H37Rv,RecA intein inh,Arbovirus inh,others
COC(=O)c1ccc(OCC(=O)c2ccccc2)cc1,76,-4,3%,4.6,0,
CCOC(=O)CSc1nc(-c2ccncc2)ccc1C#N,54,-44,15%,-1.3,-5,
CCCCOC(=O)Cn1c(=O)n(CC(=O)OCCCC)c2ccccc21,-6,-7,-7%,-1.4,-6,
Cc1ccc(S(=O)(=O)NNC(=O)c2sc3nc(C)cc(C)c3c2-n2cccc2)cc1,0,-42,-7%,3.7,-7,
Cc1cc(C)c(-c2csc(NC(=O)C3=COCCO3)n2)cc1C,75,·,·,11,·,
Cc1ccc(NC(=O)COC(=O)c2cccnc2)c(C)c1,3,·,-2%,9.0,0,
COc1ccc(-c2cn(-c3ccccc3)c(=S)[nH]2)cc1OC,-1,·,·,-4.7,·,
CCc1ccc(C2=NN(CCC(=O)N3CCC4(CC3)OCCO4)C(=O)CC2)cc1,1,·,3%,0.5,8,
O=S(=O)(Nc1cccc(-c2cn3cccnc3n2)c1)c1ccc(F)cc1,-4,-30,-1%,2.2,-3,
CC(C)C1NCCc2c1sc1ccccc21 (centres undefined),-3,·,·,-1.5,·,
NC(=O)CC(NC(=O)c1cccc(Br)c1)c1ccc(N2CCC(N3CCCC3)CC2)c([N+](=O)[O-])c1 (centres undefined),-8,·,-10%,-0.2,·,
CCN1C(=O)[C@H]2[C@@H](c3ccc(-c4ccc(Cl)c(Cl)c4)cc3)N3CCCC[C@@]3(C(=O)OC)[C@H]2C1=O,13,·,·,1.8,·,
CCC(C)(C)NC(=O)CN(Cc1cccs1)C(=O)CCC(=O)Nc1nccs1,2,-10,-4%,-1.6,5,
COc1ccc(CCNC(=O)CN(c2ccc(OC)c(OC)c2)S(C)(=O)=O)cc1OC,1,-24,-1%,-1.5,3,Arbovirus inh repeat=4
CSc1ccc(NC(=O)C(C)N2CCN(C)CC2)cc1 (centres undefined),-3,·,·,-1.4,·,
COc1ccccc1C(=O)Nc1ccc(-c2nnn(CC(=O)N3CCN(C(=O)c4ccco4)CC3)n2)cc1,-5,·,1%,0.6,0,
CC(C)Cn1c(CN2CCCCC2C)nc2c1c(=O)n(C)c(=O)n2C (centres undefined),-2,-12,4%,0.1,-4,
CCCN1CCN(C(=S)Nc2ccc(S(N)(=O)=O)cc2)CC1,1,·,3%,0.8,4,
Cc1cccc(Nc2nnc(SC3CCOC3=O)s2)c1C (centres undefined),0,·,-5%,-0.2,-1,
O=C(NCC1CCCN1S(=O)(=O)c1cccs1)C(=O)Nc1ccc(F)cc1F (centres undefined),-11,·,·,0.1,·,
Cc1ccc(OCc2nc(-c3ccccn3)n[nH]2)cc1,96,-28,3%,1.3,-36,
COC/C=C/C1=CC2=CC(=O)C(C)(OC(=O)CCC(=O)OC)C(=O)C2=CO1 (centres undefined),0,·,-1%,-19,·,
Cc1ccc(-c2cccc(C3CC=CC4C3C(=O)N(Cc3ccccc3)C4c3ccc(C(F)(F)F)cc3)c2)cc1 (centres undefined),0,·,9%,2.8,·,
COc1ccc(CCNC(=O)CSc2ccc(-c3cccs3)nn2)cc1OC,1,·,-3%,-2.4,4,
CS(=O)(=O)c1ccc(Oc2ccc(-c3nnco3)cc2)c([N+](=O)[O-])c1,6,·,·,-2.5,·,
CCOC(=O)C(=O)Nc1ccc(S(=O)(=O)Nc2nccs2)cc1,-5,·,·,-0.9,·,
CSc1nccc(Nc2ccccc2)c1C#N,9,-43,-3%,2.7,-7,
COc1cc(/C=C(\C#N)c2nc3ccccc3s2)cc([N+](=O)[O-])c1O,·,·,43%,·,36*,
CC1CCc2nc(N)c(C#N)c(-c3ccncc3)c2C1 (centres undefined),-6,-17,-8%,1.0,0,
CCOC(=O)CNC=C(C(=O)OCC)C(=O)OCC,-6,-43,6%,-3.7,-6,
COc1cccc(CNC(=O)CNS(=O)(=O)c2ccc(Br)s2)c1,1,·,·,-4.1,·,
CC(C)CNC(=O)NC(=O)COC(=O)C1CSC2(c3ccc(F)cc3)CCC(=O)N12 (centres undefined),-8,·,-3%,-0.1,6,
Cc1cccc(OCCC(=O)Nc2nnc(C)s2)c1,3,·,2%,2.2,10,
COc1ccc(CCNC2CC(=O)N(C)C2=O)cc1OC (centres undefined),-1,1,0%,-1.3,3,
COCCNCCCOc1ccc(C(C)(C)c2ccccc2)cc1,1,-21,-1%,-0.2,-27,
Cc1sc2nc(CSc3nc4ccccc4c(=O)n3CCCN3CCOCC3)[nH]c(=O)c2c1C,-8,-20,0%,-0.5,-17,
CCC(C)S(=O)(=O)c1snnc1C (centres undefined),-21,-12,-6%,1.1,6,
COc1ccccc1NS(=O)(=O)c1cc(NC(=O)c2ccncc2)ccc1N1CCOCC1,-2,-26,10%,4.2,5,
O=C(Cn1nnc(-c2ccccc2)n1)OCc1ccccc1,-3,1,-6%,1.9,-4,
CCOc1ccc(C(=O)Nc2cccc3cccnc23)cc1,5,·,·,0.6,·,
COc1ccccc1-n1c(-c2cc(-c3ccco3)[nH]n2)n[nH]c1=S,-8,·,-6%,6.2,·,
O=C1C2C3C=CC(C4CC34)C2C(=O)N1c1nccs1 (centres undefined),-4,-32,3%,-0.2,3,
Cc1cc(N2CCc3ccccc32)n2ncnc2n1,4,5,-7%,-1.9,·,
CCOC(=O)c1c(N)sc2c1CCCC2=O,-2,·,7%,·,·,
COc1ccc(CCN2CC(C(=O)NCCN3CCNC3=O)CCC2=O)cc1 (centres undefined),-5,·,·,2.2,·,
CC(=O)C1C(c2ccc([N+](=O)[O-])cc2)C2C(C)=NN=C2CC1(C)O (centres undefined),-4,·,7%,0.5,·,
O=C(Nc1ccc(Cl)c(Cl)c1)Nc1ccc([N+](=O)[O-])cn1,7,·,-2%,2.6,·,
Cc1cnc(C(=O)OCC(=O)N2CCN(C(=O)c3ccco3)CC2)cn1,-1,-47,-4%,-1.2,0,
O=C(Nc1ccncc1)c1ccccc1Cl,-4,·,·,-2.9,·,
O=C(NCc1ccccc1)C(c1ccccc1)N(C(=O)c1csnn1)c1ccccc1 (centres undefined),6,·,·,0.7,·,
Cn1c(=O)c2cn3ncccc3c2n(C)c1=O,·,-31,-5%,-2.9,-1,
CCCC(=O)Nc1nnc(C2CCCO2)s1 (centres undefined),0,·,1%,0.2,-5,
COc1cnc(-c2ccccn2)[nH]c1=O,52,·,·,-4.4,-27,
CCCNC(=O)c1noc2c1CCc1cc(OC)ccc1-2,-5,·,4%,3.4,-1,
Cn1cc2cccc([N+](=O)[O-])c2n1,-3,·,0%,1.4,-5,
CC(C)(C)NC(=O)C(c1ccccn1)N(C(=O)C1CSC(=O)C1)c1cccc(F)c1 (centres undefined),4,·,-3%,2.5,2,
Cc1nc2ccccc2c(=O)n1/N=C/c1ccc(C(C)C)cc1,5,·,·,7.1,·,
O=C1C2C3C=CC(C3)C2C(=O)N1Cc1ccc(CN2C(=O)C3C4C=CC(C4)C3C2=O)cc1 (centres undefined),-6,-5,7%,-0.8,6,
CCN(CC)S(=O)(=O)c1ccc(-c2ccc(S(=O)(=O)N(CC)CC)cc2)cc1,3,-2,-11%,-1.1,9,
O=C(NCC(c1ccco1)N1CCN(c2ccccc2F)CC1)C(=O)NC1CCCCC1 (centres undefined),-8,·,·,3.6,·,

# Following part.
SMILES,Mtb betalactam,YopH inh,Mtb H37Rv,RecA intein inh,Arbovirus inh,others
Cc1ccc(O)c(Nc2ncnc3ccc([N+](=O)[O-])cc23)c1,42,·,·,-0.2,·,
COc1cc(C(CCN2CCOCC2)c2c(OC)cc(OC)c3c(C)cc(=O)oc23)cc(OC)c1OC (centres undefined),-5,·,-15%,-0.7,·,
Cc1ccc(CNC(=O)CSc2nnc3c(n2)[nH]c2ccc(F)cc23)cc1,11,·,·,3.3,·,
Cc1ccc(C(=O)CSc2nc(N)cc(=O)[nH]2)cc1,-3,-50,1%,-1.4,6,
COc1ccccc1/C=C(\NC(=O)c1ccc(OC)c(OC)c1)C(=O)Nc1ccc([N+](=O)[O-])cc1,-6,-18,1%,-0.8,-7,
COc1ccc(NC(=O)c2cc3ccccc3o2)cc1,98,-41,9%,1.5,-4,Arbovirus inh repeat=6
NCCSc1c(-c2ccc(F)cc2)[nH]c2ccccc12,-11,·,4%,4.4,·,
CC1Cc2ccccc2N1c1nc(C2CC2)nc2c1nnn2Cc1ccccc1 (centres undefined),6,14,15%,-1.2,5,
Cc1cccc(OCCCC(=O)Nc2nccs2)c1C,6,·,5%,-2.6,·,
CC1CCCCC1NC(=O)CN(C)S(=O)(=O)c1cccc2nsnc12 (centres undefined),6,-14,-8%,-1.6,-3,
Cc1cccc(C(=O)NCC(=O)N2CCOCC2)c1,?,·,·,1.1,·,
O=C(Cc1ccccc1)Nc1ccc2oc(-c3cccnc3)nc2c1,37,2,-2%,2.4,3,
Cc1c(Cl)cccc1NC(=S)N1CCC(N(C)CC2CCCO2)CC1 (centres undefined),0,·,0%,3.4,-1,
CCOC(=O)C1CCCN(C(=O)c2cc3nc(-c4ccc5c(c4)OCO5)cc(C(F)(F)F)n3n2)C1 (centres undefined),99,-6,?,-7.8,6,
Cc1ccn(CC(C)C(=O)O)n1 (centres undefined),-3,·,-8%,15,3,
O=C(Nc1ccccc1C(=O)NC(Cc1c[nH]c2ccccc12)C(=O)O)c1ccccc1 (centres undefined),-2,·,-5%,2.1,·,
CC(C)(C)c1ccc(-c2nc3n(c(=O)c2C#N)CCS3)cc1,5,·,8%,-5.6,6,
Clc1cccc(NC2=NCCC2)c1,-3,4,-4%,·,-3,
NC(=O)NCc1ccccc1,-2,·,-18%,-1.5,5,
Brc1ccc2nc3c(n2c1)CCCC3,-6,-18,-1%,-0.6,-5,
Cc1cccc(NC(=O)NCC(F)(F)F)n1,0,-2,-3%,-0.5,-3,
O=C1c2ccccc2C(=O)N1c1nc2nccc(-c3ccccc3)n2n1,-7,-23,-6%,2.8,-8,
Cc1ccc(-c2cn3c(n2)CCCC3)cc1,44,-17,1%,0.0,-6,
O=C(O)CCN1CC2([N+](=O)[O-])C=CC(=O)C([N+](=O)[O-])(C1)C2CC(=O)c1ccccc1 (centres undefined),-5,-26,-7%,1.1,-9,
COCCN(C(=O)c1ccco1)c1nnc(-c2ccc(OC)cc2)s1,18,-3,-14%,3.6,3,
CN1CCN(c2ccc([N+](=O)[O-])cc2NC(=O)c2ccco2)CC1,4,·,·,0.5,·,

# Pulled by compound from above:
SMILES,Mtb betalactam,YopH inh,Mtb H37Rv,RecA intein inh,Arbovirus inh,others
Cc1cccc(NC(=O)NCC(F)(F)F)n1,0,-2,-3%,-0.5,-3,
CN1CCN(c2ccc([N+](=O)[O-])cc2NC(=O)c2ccco2)CC1,4,·,·,0.5,·,
Brc1ccc2nc3c(n2c1)CCCC3,-6,-18,-1%,-0.6,-5,
CC(C)(C)c1ccc(-c2nc3n(c(=O)c2C#N)CCS3)cc1,5,·,8%,-5.6,6,
NC(=O)NCc1ccccc1,-2,·,-18%,-1.5,5,
COCCN(C(=O)c1ccco1)c1nnc(-c2ccc(OC)cc2)s1,18,-3,-14%,3.6,3,

# Already shown: entries from further up.
SMILES,Mtb betalactam,YopH inh,Mtb H37Rv,RecA intein inh,Arbovirus inh,others
O=C1c2ccccc2C(=O)N1c1nc2nccc(-c3ccccc3)n2n1,-7,-23,-6%,2.8,-8,
Cc1ccc(-c2cn3c(n2)CCCC3)cc1,44,-17,1%,0.0,-6,
O=C(O)CCN1CC2([N+](=O)[O-])C=CC(=O)C([N+](=O)[O-])(C1)C2CC(=O)c1ccccc1 (centres undefined),-5,-26,-7%,1.1,-9,
COCCN(C(=O)c1ccco1)c1nnc(-c2ccc(OC)cc2)s1,18,-3,-14%,3.6,3,
CN1CCN(c2ccc([N+](=O)[O-])cc2NC(=O)c2ccco2)CC1,4,·,·,0.5,·,
